# Menin-MLL FL inh = inhibitors of human menin-MLL interaction, wild-type MLL peptide; FP activity change, % at 61.4 µM; AID 1766; Fluorescence polarization, fluorescein-MLL peptide displacement from menin; 290,000 tested, under 10 active; inconclusive = falling polarisation curve, or a change in total fluorescence; inactive = total fluorescence flat and polarisation flat or rising; no compound was filed as active; the % refers to the polarisation; negative = inhibition;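 further: % of control where 0% means no effect; inhibitors lower the polarisation; unlabelled MLL peptide was the positive control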
# ClpP mod = qHTS Assay for Activators of ClpP; purified B. subtilis ClpP, FRET peptide cleavage, 20 min; ATP-dependent Clp protease proteolytic subunit (Bacillus subtilis (strain 168)), P80244; hit rate 1.9% among 340,000; AID 651965, 2013; Potency, µM (doses to about 57.5 µM), inactives show top-dose activity change, negative = active; active = well fitted falling curve with a large enough effect; inconclusive = small, poorly fitted or top-dose-only effect; inactive = no such curve, though single readings can be large or run the other way; further: potency means the concentration at half of the fitted maximal effect; the source files actives as falling curves though it sought activators and does not explain the sign; nearly all actives have a fitted effect of over 65% in size; many hits overshoot -100%
# Target sequence (P80244 whole entry, looked up): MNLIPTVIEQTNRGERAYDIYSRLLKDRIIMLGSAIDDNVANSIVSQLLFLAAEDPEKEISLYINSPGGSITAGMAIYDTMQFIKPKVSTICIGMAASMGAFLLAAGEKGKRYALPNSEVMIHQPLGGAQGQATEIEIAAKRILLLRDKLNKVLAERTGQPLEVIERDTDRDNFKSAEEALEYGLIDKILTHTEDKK
#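 Purified B. subtilis ClpP, 10 microg/mL final in Tris/HCl pH8 with KCl, BSA, glycerol and Tween-20, cleaved an Abz/nitrotyrosine-quenched decapeptide. Fluorescence (ex 320, em 430) was read at 0 and 20 min at room temperature. Delta was normalized to 5.8 microM ADEP and DMSO/no-enzyme controls.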
# PINK1 modulator = modulators of PINK1 expression; PINK1 immunofluorescence, high-content cytometry, 24 h; AID 624263; hit rate 0.2% among 410,000; Potency, µM (highest dose often 76.6 µM), inactives show at the highest dose activation (PINK1 increase), hits mostly activators; active = well fitted activation curve with a large enough effect; inconclusive = small, poorly fitted or top-dose-only effect; inactive = flat fitted curve, though single readings scatter; cell line not stated here;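 further: potency means the concentration at half of the fitted maximal effect; % of control where 0% means no effect; nearly all actives have a fitted effect of over 65% in size; a mitochondrial uncoupler was the plate control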
#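 A stable cell line was treated with compounds at 5 concentrations for 24 hours, with CCCP as control. PINK1 levels and mitochondrial localization were measured by immunofluorescence with mitochondrial, cell and nuclear markers after fixation, read by laser-scanning cytometry.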
# Sfp PPTase inh = Sfp phosphopantetheinyl transferase inhibition; Q9F4F7; Biochemical Sfp PPTase activity, qHTS; Potency, µM, for inactives: max response, negative = inhibition, usual class: inhibitors; hit rate 3.5% among 310,000; AID 1490; active means well fitted inhibition curve with a large enough effect; inconclusive means small, poorly fitted or top-dose-only effect, or another doubt; inactive means no such curve, though single readings can be large or run the other way;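 further: the enzyme is Sfp with the accession as filed and its product quenches rhodamine fluorescence; potency means the concentration at half of the fitted maximal effect; 0% = enzyme reaction without inhibitor and -100% = no enzyme wells; top concentration of the series not given in the record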
#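 With Hepes-Na pH 7.6 buffer containing 10 mM MgCl2, Sfp (15 nM) modified BHQ-2-YbbR (12.5 uM) using rhodamine-CoA (5 uM). Two reads 30 minutes apart at 525/598 nm yielded each well's rate.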
# gsp agonist = activates gsp, the McCune-Albright syndrome mutation; gsp mutant cells, cAMP HTRF, 30 min; control for the full effect not named in the record; Potency, µM (top dose mostly 76.9 µM), inactives show top-dose activation (cAMP increase), usual class: activators; hit rate 0.13% among 340,000; active = well fitted activation curve with a large enough effect; inconclusive = small, poorly fitted or top-dose-only effect, or another doubt; inactive = no such curve, though single readings can be large or run the other way; cell line not stated here;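 further: phosphodiesterase inhibitor Ro 20-1724 added with compounds to block cAMP breakdown; potency means the concentration at half of the fitted maximal effect; nearly all actives have a fitted effect of over 60% in size; about a fifth of the inactives were tested at one dose only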
#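 Cells in DMEM/10% FBS with G418 were pretreated with compounds in DMSO plus […] (300 uM stock) for 30 min at 37C. cAMP was measured by HTRF (cAMP-d2 plus anti-cAMP antibody-K) after 30 min at room temperature.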
# D2 ag = agonists of human D2 dopamine receptor (beta-arrestin); activation, % (test concentration not listed); DiscoveRx PathHunter D2 beta-arrestin, luminescence, 90 min; 100% = 57 uM dopamine signal; hit rate 0.084% among 360,000; P14416; in the data active = activation above about 40%; inconclusive = about 15% to 40%; inactive = below about 15%; further: compound concentration not given in the record; the text of the record calls up to 30% inactive
# Target sequence (P14416 whole entry, looked up): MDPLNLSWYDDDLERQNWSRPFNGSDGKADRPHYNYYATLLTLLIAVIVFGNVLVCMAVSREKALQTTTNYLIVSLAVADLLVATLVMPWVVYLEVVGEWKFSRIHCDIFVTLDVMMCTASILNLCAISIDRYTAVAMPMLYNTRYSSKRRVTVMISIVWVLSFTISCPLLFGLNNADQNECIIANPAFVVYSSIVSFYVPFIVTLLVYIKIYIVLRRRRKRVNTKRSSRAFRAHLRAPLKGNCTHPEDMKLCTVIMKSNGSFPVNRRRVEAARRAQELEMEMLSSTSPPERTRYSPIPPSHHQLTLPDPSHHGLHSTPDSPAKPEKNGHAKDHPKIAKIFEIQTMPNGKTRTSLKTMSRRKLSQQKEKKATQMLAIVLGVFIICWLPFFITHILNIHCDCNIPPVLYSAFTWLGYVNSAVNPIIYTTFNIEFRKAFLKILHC
#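 DiscoveRx PathHunter D2 beta-arrestin cells (2,100/well) attached overnight, then compound-stimulated 90 min at 37 C in HBSS/10 mM HEPES/0.1% Tween-20 buffer; beta-galactosidase complementation read by luminescence after 1 h at ambient temperature. Dopamine 57 uM final (EC100) as control.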
# gsp antagonist = gsp mutant antagonism | gsp-mutant cells, cAMP HTRF, 30 min; control for the full effect not named in the record | Potency, µM (highest dose often 76.9 µM), for inactives: at the highest dose activity change, negative = inhibition, hits mostly inhibitors | hit rate 0.4% among 340,000; active = falling curve of any shape with a large fitted effect; inconclusive = falling curve, mostly with a smaller effect; inactive = flat or rising curve; cell line not stated here;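 further: intracellular cAMP measured with PDE inhibitor Ro 20-1724 present during compound exposure; potency means the concentration at half of the fitted maximal effect; on the % scale 0 is the no-effect control and ±100 the full control effect; nearly all actives have a fitted effect of over 65% in size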
#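 HTRF cAMP read-out (cAMP-d2 plus anti-cAMP antibody-K in lysis buffer, 30 min RT). Before lysis, cells are exposed to compounds with […] for 30 min at 37C in DPBS containing Ca/Mg, BSA and Tween 20.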
# Numbers without * were called inactive; u = inconclusive; x = no result given; [ ] = dose if it differs, or a comment.
SMILES,Menin-MLL FL inh,ClpP mod,PINK1 modulator,Sfp PPTase inh,gsp agonist,D2 ag,gsp antagonist
CC(NC(=O)COC(=O)C1CC1C)c1ccccc1 (stereo unspecified),x,0.3%,1.2%,x,-25%,-0.7,18%
CC(=O)Nc1ccc(C(=O)N2CCCC(c3cc(C(=O)NCc4ccccc4)no3)C2)cc1 (stereo unspecified),x,-1.3%,1.4%,x,x,-4.1,x
CCOC(=O)CN(C)Cc1cn[nH]c1-c1ccc2cc(OC)ccc2c1,-2.3,-1.3%,-0.2%,22%,7%[15.4 µM],0.8,6%
O=C(NCCc1cccs1)C1CCC(=O)N(CCc2cccc(F)c2)C1 (stereo unspecified),x,0.1%,1.1%,2%,20%,-1.1,7%
CSc1ncccc1C(=O)OCC(=O)c1cc(C)n(C)c1C,x,33%,24%,x,4%,1.2,6%
O=C(N/N=C\c1ccc(COc2ccc([N+](=O)[O-])cc2)o1)c1ccc(Cl)cc1,0.0,-4.5%,-0.9%,-3%,0%,-0.7,-20%
CCOC(=O)Cc1csc(NC(=O)c2c(-c3c(Cl)cccc3Cl)noc2C)n1,2.4,-2.8%,-0.1%,23%,-13%,-1.0,4%
O=C(Nc1cccc(S(=O)(=O)N2CCOCC2)c1)c1ccccc1[N+](=O)[O-],x,0.1%,0.3%,x,-47%[inhibitor],-3.1,4%
CN(C)S(=O)(=O)c1ccc(C(=O)NCc2nnc(SCC(=O)N3CCCC3)o2)cc1,x,-1.4%,-1.2%,-3%,u,-4.1,11%
Nc1cc(-c2ccccc2)nn1Cc1ccccc1,1.1,x,-0.4%,15%,-15%[15.4 µM],-3.6,5%
Cc1cc(N2CCC(C)CC2)nc(-n2nc(C)cc2C)n1,-2.1,-4.7%,-0.7%,19%,-60%[inhibitor],-3.7,0%
CC1(C)Cc2cccc(OCC(=O)NCc3ccccc3F)c2O1,x,-0.5%,0.9%,x,-6%,3.8,2%
CCN(CC)CCCNc1nc2cc(OC)c(OC)cc2c2nc(-c3cccnc3)nn12,-7.1,2.2%,5.5%,-9%,-22%,-0.5,0%
CC(C)CNC(=O)C1CCCN(C(=O)NCc2ccccc2)C1 (stereo unspecified),-0.7,-0.2%,0.0%,2%,-13%,1.6,-3%
C[C@@H]1CN([C@H](C)CO)C(=O)c2c(c3ccccc3n2C)-c2ccccc2CO[C@H]1CN(C)S(=O)(=O)c1cn(C)cn1,x,-11%,-0.1%,x,u,-3.0,x
O=C(COc1cccc(-n2cnnn2)c1)Nc1ccccc1,1.0,-3.3%,-0.7%[38.3 µM],-30%,-25%,-1.4,-5%
COC(=O)c1ccc(CN2CCC(CO)(Cc3cccc(OC)c3)CC2)cc1,-5.3,-0.9%,-0.2%,18%,-37%[inhibitor],-0.5,0%
S=C1CSc2ccccc2N1,-0.4,-0.2%,0.2%,-88%,-9%[15.4 µM],-8.9,6%
CCOC(=O)c1cn(CC(=O)Nc2ccc(C)cc2)nn1,3.1,-1.8%,-4.4%[38.3 µM],22%,0%,-0.2,10%
CC(=O)c1c(C)[nH]c(C(=O)O)c1C,-0.4,-0.3%,0.5%,-3%,3%,-6.9,3%
COc1ccc(-c2cnc3c(NC(C)=O)cc(-c4cccc(NS(C)(=O)=O)c4)cn23)cc1OC,x,-14%,4.1%,x,x,12,x
O=C(CNC(=O)c1ccccc1)Nc1cccc(C(F)(F)F)c1,1.4,0.9%,3.3%,7%,2%,-0.8,2%
COc1cc(S(=O)(=O)N2CCN(c3ccccc3)CC2)ccc1F,0.5,0.4%,1.8%,2%,1%[15.4 µM],3.5,1%
C[C@@H](C(=O)NCc1ccccc1)N1C(=O)C2CC=CCC2C1=O (stereo partly specified),-1.9,-2.1%,-1.4%,-2%,-13%,-2.1,-10%
CCN1CCCC1CNC(=O)CN1C(=O)COc2ccc(C)cc21 (stereo unspecified),1.2,0.1%,0.1%,21%,42%,-4.8,9%
CN(c1ccc([N+](=O)[O-])cc1C(N)=O)C1CCCCC1,-4.3,x,-2.1%,14%,u,-3.8,5%
CN(Cc1ccccc1)CC(O)COc1ccc(CNCc2cc3ccccc3s2)cc1 (stereo unspecified),-1.2,0.9%,6.4%,-7%,-8%,u,11%
COc1ccc(N(C(=O)c2snc(C(N)=O)c2N)C(C(=O)NCc2ccccc2)c2ccc(O)cc2)cc1 (stereo unspecified),6.2,x,3.4%,1%,25%[15.4 µM],-0.3,-21%
O=C(Nc1ccc(NC(=O)c2ccccc2F)cn1)c1ccco1,-1.9,x,1.3%,17%,-3%,0.9,0%
CC1(C)CC2CC(C)(CN2S(=O)(=O)c2cccc(N)c2)C1 (stereo unspecified),2.5,-0.6%,1.0%,15%,9%,-2.6,11%
Nc1nncn1C(=O)CCc1ccccc1,1.5,-5.4%,26%[38.3 µM],2%,-8%,-4.3,2%
CCCCC(c1nnnn1C1CCCC1)N1CCN(C(=O)c2ccco2)CC1 (stereo unspecified),2.7,-2.7%,1.1%,-11%,16%,-3.3,-3%
Cc1sc2ccccc2[n+]1CC(=O)O,-3.6,x,2.1%,2µM*,-7%[15.4 µM],0.0,4%
CCN(CC)C(=O)c1nc[nH]c1C(=O)N1CCC(C)CC1,x,-0.3%,-0.2%,x,x,-0.6,15%
Cc1ccc(S(=O)(=O)Oc2ccc(C3C4=C(CCCC4=O)OC4=C3C(=O)CCC4)cc2)cc1,1.7,1.0%,-1.4%,1%,-12%,-2.4,2%
Cc1ccc(-c2nnn(CC(=O)N(Cc3cccs3)C(C(=O)NC3CCCC3)c3ccco3)n2)o1 (stereo unspecified),19,-3.2%,17%[38.3 µM],-15%,2%,-0.3,9%
COc1ccc(/C=C/C(=O)NCc2cnn(C)c2C)cc1COc1ccc(Br)cc1,1.7,-3.4%,-0.9%[38.3 µM],-22%,27%,-3.3,-18%
Cc1ccc(NC(=O)C2(C)CCN2C(=O)CCC2CCCC2)cc1C (stereo unspecified),x,-1.1%,12%,x,x,-1.4,x
CCOC(=O)c1cnc(SCc2cccc3ccccc23)nc1N,6.0,-12%,5.1%[38.3 µM],u,12%,-1.8,5%
CN(C(=O)c1ccc(NC(=O)Cc2cccc(NC(=O)C3CCN(C(=O)CCc4ccccc4)CC3)c2)cc1)C1CCCC1,x,-0.3%,0.6%,x,x,-2.5,4%
CCc1ccc(CCC(=O)Nc2ccc(S(N)(=O)=O)cc2)o1,4.4,-3.5%,-0.6%[38.3 µM],-23%,33%,0.7,10%
Cc1cc(NC(=O)c2csc([C@@H]3O[C@H](CO)[C@H](O)[C@H](O)[C@H]3O)n2)n(C)n1,x,-11%,0.8%,x,x,-7.2,x
CC1CN(c2nc(Nc3ccccc3)nc(N)c2[N+](=O)[O-])CC(C)O1 (stereo unspecified),5.6,1.2%,-0.7%,-4%,4%,1.9,0%
Cc1ccnc(NS(=O)(=O)c2ccc(NC(=O)c3ccc(S(=O)(=O)N4CCOCC4)cc3)cc2)n1,6.9,0.7%,3.8%,29%,27%,-1.9,7%
CC(C)C(C(=O)NCC1CCCO1)N(Cc1cccs1)C(=O)CNS(=O)(=O)c1ccccc1 (stereo unspecified),-0.4,x,0.3%,14%,4%[15.4 µM],-1.4,-7%
Cc1cccc(NC(=O)NCC(c2cccnc2)N2CCOCC2)c1 (stereo unspecified),2.2,0.7%,2.1%,10%,0%[15.4 µM],-4.5,12%
Cc1sc2ncnc(N3CCN(S(=O)(=O)c4ccc(C(C)(C)C)cc4)CC3)c2c1C,x,-6.8%,1.3%,x,21%,-2.4,u
O=C(Nn1c(=S)[nH]c2ccccc2c1=O)c1ccncc1,2.1,-0.9%,1.6%,-27%,-2%,-3.6,-2%
O=C(Nc1ccncc1)Nc1ccc(F)cc1F,5.0,-1.8%,-2.2%[38.3 µM],8%,27%,1.4,-1%
CCC(C)NC(=O)c1n[nH]c(=O)c2ccccc12 (stereo unspecified),-14,1.0%,0.3%,19%,-2%,-1.5,5%
CCOc1ccc(S(=O)(=O)NCCC(=O)NC2CCCCC2)cc1,x,-2.7%,-3.3%,x,16%,0.3,5%
Clc1ccc(CN2CCN(/N=C/c3cccnc3)CC2)cc1,2.1,x,1.7%,0%,9%[15.4 µM],-5.4,4%
CCN1CCN(c2sc(S(=O)(=O)CC)nc2S(=O)(=O)c2ccc(Cl)cc2)CC1,x,-0.5%,2.2%,x,u,-2.1,x
COC(=O)c1sccc1NC(=O)c1ccc(C)cc1,-2.4,x,1.9%,5%,13%,-0.5,3%
COc1ccccc1N1CCN(CCCN2C(=O)C3CCCCN3C2=O)CC1 (stereo unspecified),x,-1.2%,-2.6%,x,-8%,0.8,13%
COC(=O)c1c(C(=O)OC)c(-c2ccc(C)cc2)n2c1CS(=O)C2 (stereo unspecified),-1.2,-21%,-2.1%,2%,1%,-0.1,-9%
Cc1ccc(-c2nn3nnnc3c3ccccc23)cc1C,4.1,-10%,u,2%,-73%[inhibitor],-2.8,-4%
CC1CCCCC1NC(=O)COc1ccc(-n2cnnn2)cc1 (stereo unspecified),1.1,-0.1%,-1.4%,-17%,-14%,-0.5,0%
CCCCCC(=O)Cc1cc(O)cc(O)c1C(=O)Oc1cc(CC(=O)CCCCC)c(C(=O)O)c(OC)c1,0.8,x,1.8%,10%,x,x,x
O=[N+]([O-])c1cncc([N+](=O)[O-])c1Nc1cccc(O)c1,-2.0,0.9%,-2.7%,-4%,18%,9.8,-6%
Cc1nn(CCCC(=O)NC2CCC(C)CC2)c(=O)c2nn(-c3ccccc3)c(C)c12 (stereo unspecified),x,0.2%,-0.2%,-5%,u,0.7,-17%
